# S aureus helic: inhibitors of S. aureus replicative helicase, primary screen, biochemical, fluorescence unwinding readout. inhibition, %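 (tested at about 80 µM)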. AID 485395, 2010. 120,000 tested, 0.05% active. replicative DNA helicase (DnaC/DnaB), Staphylococcus aureus. purified S. aureus helicase, fluorescence unwinding assay; about half of the hits fall short of the stated cut;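 active means both duplicates at 50% or more, or one of them with a favoured structure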;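 further: 0% = mean of negative control wells and 100% = mean of positive control wells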
# MgrA-DNA mod: S. aureus MgrA activity modulators, primary screen, biochemical, S. aureus Newman, fluorescence polarization; MgrA-DNA binding; inhibition, %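 (about 10 µg/mL by stock and volumes)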; 84,000 tested, 0.13% active;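 active means above 50% in either of two replicates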;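 further: 0% = protein plus DNA without compound and 100% = DNA alone without protein; higher means less MgrA bound to DNA so lower polarization; one replicate is shown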
# * = called active by the depositor; nt = not tested or not shown; & = joins results of further samples. The list is partial. The share of hits here may be higher or lower than overall.
# The first 2 entries (preview)
S aureus helic	MgrA-DNA mod	structure
-28.0	nt	COc1cc2c(cc1OC)C(=O)CC2
nt	2.7	CC(=O)c1ccc2c(c1)N(CCCN(C)C)c1ccccc1S2

# Results, from the first entry:
S aureus helic	MgrA-DNA mod	structure
-28.0	nt	COc1cc2c(cc1OC)C(=O)CC2
nt	2.7	CC(=O)c1ccc2c(c1)N(CCCN(C)C)c1ccccc1S2
nt	2.1	COc1ccc(C(=O)CC(=O)c2ccc(C(C)(C)C)cc2)cc1
nt	1.4	O=C(NCCc1c[nH]c2ccccc12)c1cccnc1
nt	1.6&2.1	C1CCC(C(CC2CCCCN2)C2CCCCC2)CC1 (configuration not stated)
nt	1.1	CC(COc1ccccc1)NC(C)[C@H](O)c1ccc(O)cc1 (some centres not stated)
nt	-1.6&0.2	Cc1nc2ccccn2c(=O)c1CCN1CCC(C(=O)c2ccc(F)cc2)CC1
nt	0.8&3.0	c1ccc(CC2=NCCN2)cc1
nt	1.7	O=S(=O)(c1cccc2cnccc12)N1CCCNCC1
nt	-2.1	C[C@@H](N)C1CCC(C(=O)Nc2ccncc2)CC1 (some centres not stated)
nt	-2.7	CC(COc1ccccc1)NC(C)C(O)c1ccc(O)cc1 (configuration not stated)
nt	4.3&1.4	c1ccc(CN(CC2=NCCN2)c2ccccc2)cc1

# Structural class: the entries above with a carbonyl joined to an NH by a bond outside any ring
S aureus helic	MgrA-DNA mod	structure
nt	1.4	O=C(NCCc1c[nH]c2ccccc12)c1cccnc1
nt	-2.1	C[C@@H](N)C1CCC(C(=O)Nc2ccncc2)CC1 (some centres not stated)

# Following part:
S aureus helic	MgrA-DNA mod	structure
nt	-0.2&0.7	COc1ccccc1N1CCN(CCCNc2cc(=O)n(C)c(=O)n2C)CC1
nt	0.2	CC(=O)[C@H]1CCC2C3C[C@H](C)C4=CC(=O)CC[C@]4(C)C3[C@@H](O)C[C@@]21C (some centres not stated)
nt	-1.1&2.1	O=C(c1ccc(F)cc1)C1CCN(CCn2c(=O)[nH]c3ccccc3c2=O)CC1
nt	0.0&-0.9&-0.1	Oc1ccc(/C=C/c2cc(O)cc(O)c2)cc1
nt	-1.3&2.8	Cc1c(NC(=O)c2cccnc2)c(=O)n(-c2ccccc2)n1C
3.0	-0.6	CC(C)C(=O)Nc1cccc(C(F)(F)F)c1
nt	-0.4&-1.1	OCCN1CCN(CCCN2c3ccccc3Sc3ccc(Cl)cc32)CC1
nt	0.9	CCCNC(C)C(=O)Nc1c(C)csc1C(=O)OC (configuration not stated)
nt	-1.1	O=C(CCNNC(=O)c1ccncc1)NCc1ccccc1
nt	-1.1&-0.1	CCN(CC)CCNC(=O)c1cc(Cl)c(N)cc1OC
0.0	-2.7	CCC(=O)N1CCC(C(=O)O)CC1
nt	0.8&-3.3	CC(C(=O)O)c1ccc(C(=O)c2cccs2)cc1 (configuration not stated)

# Full records from above. Order of values: S aureus helic	MgrA-DNA mod
# CC(=O)[C@H]1CCC2C3C[C@H](C)C4=CC(=O)CC[C@]4(C)C3[C@@H](O)C[C@@]21C (some centres not stated) across the screens: nt	0.2
# CCC(=O)N1CCC(C(=O)O)CC1 across the screens: 0.0	-2.7
# COc1ccccc1N1CCN(CCCNc2cc(=O)n(C)c(=O)n2C)CC1 across the screens: nt	-0.2&0.7
# CC(C)C(=O)Nc1cccc(C(F)(F)F)c1 across the screens: 3.0	-0.6

# Additional structures follow.
S aureus helic	MgrA-DNA mod	structure
16.0	-1.1	O=C(Nc1cc2cc[nH]c2cn1)c1ccccc1
-15.0	1.1	COc1ccccc1-c1cccc(C(=O)O)c1
9.0	nt	O=C1CCCc2cc(S(=O)(=O)N3CCC(C(=O)NC4CCCCCC4)CC3)ccc2N1
nt	0.8	C[C@@H]1CC2C3C[C@H](F)C4=CC(=O)C=C[C@]4(C)[C@@]3(F)[C@@H](O)C[C@]2(C)[C@@]1(O)C(=O)COC(=O)C(C)(C)C (some centres not stated)
nt	-0.8	CC(=O)NC(Cc1ccccc1)C(=O)O (configuration not stated)
nt	3.9&3.7	CN(C)CCOC(C)(c1ccccc1)c1ccccn1 (configuration not stated)
nt	-0.3&0.3	CN1CCOC(c2ccccc2)c2ccccc2C1 (configuration not stated)
nt	1.4&3.2	CN1CCN(C(c2ccccc2)c2ccccc2)CC1
nt	0.2&-3.2	CC1COc2c(N3CCN(C)CC3)c(F)cc3c(=O)c(C(=O)O)cn1c23 (configuration not stated)
nt	0.3	CC(=O)c1ccc(S(=O)(=O)NC(=O)NC2CCCCC2)cc1
nt	-2.2&-0.6	Cc1cc(-c2ccccc2)nnc1NCCN1CCOCC1
-6.0	nt	CC(=O)Nc1ccc(C(=O)O)cc1
nt	5.8	O=C1c2ccc(O)c(O)c2C(=O)c2c(O)ccc(O)c21
39.0	nt	O=C(CCN1CCC(c2ccccc2)C1)c1ccc2c(c1)OCCO2 (configuration not stated)
nt	4.1	C=CC1=C(C(=O)O)N2C(=O)[C@@H](NC(=O)/C(=N\O)c3csc(N)n3)[C@H]2SC1 (stereo in doubt)
nt	1.1	CC(=O)O[C@]1(C(C)=O)CCC2C3C=C(Cl)C4=CC(=O)[C@@H]5C[C@@H]5[C@]4(C)C3CC[C@@]21C (some centres not stated)

# In the list so far, three have a Cl atom:
S aureus helic	MgrA-DNA mod	structure
nt	-0.4&-1.1	OCCN1CCN(CCCN2c3ccccc3Sc3ccc(Cl)cc32)CC1
nt	-1.1&-0.1	CCN(CC)CCNC(=O)c1cc(Cl)c(N)cc1OC
nt	1.1	CC(=O)O[C@]1(C(C)=O)CCC2C3C=C(Cl)C4=CC(=O)[C@@H]5C[C@@H]5[C@]4(C)C3CC[C@@]21C (some centres not stated)
